# High-throughput results: PubChem, several laboratories
# Vif TR-FRET: HIV-1 Vif–A3G interaction blockers – biochemical, TR-FRET, GST-Vif 1-94, biotin-A3G peptide, dose response retest, primary screen (AID 1117319). TR-FRET GST-Vif / biotin-A3G peptide binding; higher % means a stronger effect; test concentration not given here; strong numbers were not always called active. one-dose inhibition, %; IC50 in µM for titrated hits. hit rate 0.57% among 260,000;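 active = above the screen mean plus three standard deviations and confirmed in dose response; inconclusive = results disagree or hit not tested in dose response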;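 note: Vif residues 1-94 fused to GST binding biotinylated APOBEC3G peptide 110-148; 0% = full assay without inhibitor and 100% = GST in place of GST-Vif; retest series ran down from 100 µM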
# HNF4A DNA FP: change in binding of human HNF4 alpha to DNA | P41235 | HNF4a-FITC DNA binding, fluorescence polarization, 1 h | activity change, % at 10 µM | hit rate 0.3% among 360,000 | AID 1224865; in the data active = activity change above about 30%, passing the limit was not always enough;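 note: controls were the assay level and a saturating level of protein; the project sought stronger binding though the title names inhibitors; some compounds called inactive have numbers as strong as hits; positive values seem to mean higher polarization but the record does not say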
# A1 inh: inhibitors of the anti-apoptotic protein A1, read as caspase activation | MEF A1-2A-BIM cells, Caspase-Glo 3/7 luminescence, 3 h; percent of clofoctol response, vehicle zero | caspase activation, % (test concentration not listed) | hit rate 0.066% among 330,000 | AID 2462;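 active = over half of replicate activation scores above 10%, or exactly half above 10 with the replicate mean above 10; inconclusive = replicate mean below 10 yet half the replicates above 10; inactive = over half of replicates below 10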;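 note: wells of about 30 µL received 50 nL stock; many hits fall short of the cut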
# LANA-H2A inh: blocks KSHV LANA binding to histone H2A/H2B | cell-free LANA-H2A/H2B peptide, fluorescence polarization | inhibition, % (test concentration not listed) | hit rate 0.6% among 320,000; in the data active = inhibition mostly above about 10%, no sharp cut-off; inactive = mostly below about 6.7%;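 note: stock transfer was 7.5 nL into about 10 µL; 0% = median of vehicle wells and 100% = median of positive control wells; one replicate is shown; the record names a cut of 25% in any replicate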
# Target sequence (Q9QR71 whole entry, looked up): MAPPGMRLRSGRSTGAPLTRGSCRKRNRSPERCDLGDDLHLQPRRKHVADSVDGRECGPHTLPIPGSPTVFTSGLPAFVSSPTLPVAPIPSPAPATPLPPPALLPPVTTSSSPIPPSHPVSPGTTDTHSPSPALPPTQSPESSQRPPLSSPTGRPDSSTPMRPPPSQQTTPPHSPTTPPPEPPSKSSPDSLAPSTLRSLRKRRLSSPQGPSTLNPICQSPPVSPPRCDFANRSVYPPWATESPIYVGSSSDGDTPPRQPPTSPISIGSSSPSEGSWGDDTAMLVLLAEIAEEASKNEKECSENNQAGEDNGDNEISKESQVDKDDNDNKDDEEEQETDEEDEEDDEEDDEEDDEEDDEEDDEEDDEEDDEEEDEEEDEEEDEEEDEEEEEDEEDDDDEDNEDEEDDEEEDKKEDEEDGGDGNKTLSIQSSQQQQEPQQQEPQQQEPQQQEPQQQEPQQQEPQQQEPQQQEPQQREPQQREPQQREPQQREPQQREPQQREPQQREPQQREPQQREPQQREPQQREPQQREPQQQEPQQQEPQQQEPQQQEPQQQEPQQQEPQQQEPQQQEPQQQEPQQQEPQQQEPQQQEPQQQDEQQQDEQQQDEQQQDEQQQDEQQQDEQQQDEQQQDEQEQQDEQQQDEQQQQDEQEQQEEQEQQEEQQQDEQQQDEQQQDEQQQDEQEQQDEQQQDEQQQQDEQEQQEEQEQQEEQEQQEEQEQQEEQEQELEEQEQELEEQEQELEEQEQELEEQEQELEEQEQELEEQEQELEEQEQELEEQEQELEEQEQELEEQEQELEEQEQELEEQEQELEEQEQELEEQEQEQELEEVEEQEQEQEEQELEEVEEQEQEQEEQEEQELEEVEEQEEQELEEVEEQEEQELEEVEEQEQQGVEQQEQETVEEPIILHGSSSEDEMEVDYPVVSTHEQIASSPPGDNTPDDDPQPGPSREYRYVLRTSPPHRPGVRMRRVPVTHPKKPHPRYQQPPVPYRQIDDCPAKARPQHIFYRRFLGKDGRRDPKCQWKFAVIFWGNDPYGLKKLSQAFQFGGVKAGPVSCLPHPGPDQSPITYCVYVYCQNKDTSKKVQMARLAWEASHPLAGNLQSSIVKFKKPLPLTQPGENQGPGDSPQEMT
# Beta2AR agonist: agonists of human beta-2 adrenergic receptor inducing internalization | hit rate 0.43% among 340,000 | P07550 | Am2.2-beta2AR cells, FAP receptor internalization, flow cytometry; reference of the scale not given here | response, % (test concentration not listed);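 active = response above a set limit, near 3 SD of response in nonfluorescent compounds, cut at about 42% in these data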;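 note: stock transfer was 100 nL into about 11 µL; a reference agonist was the positive control; negative values mostly stem from fluorescent compounds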
# UCH37 DUB inh: human UCH37 deubiquitinating enzyme inhibition; inhibition, % (no concentration beside the values); hit rate 0.33% among 330,000; purified proteasome/UCH37, Ub-AMC cleavage fluorescence; Q9Y5K5;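 active = mean of two replicates above 20%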;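 note: 0% = compound-free wells with enzyme and 100% = wells lacking proteasome; stock transfer was 100 nL into about 20 µL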
#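 Schedule: 30 min plus 25 min, room temperature / Material: human UCH37 within purified proteasomes / Technique: AMC fluorescence intensity at 355/460 nm / Buffer or medium: pH 7.4 Tris-HCl (50 mM) with ovalbumin, ATP-MgCl2, DTT / Controls: wells without proteasome as full block, compound-free enzyme plus substrate as uninhibited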
# Ecoli growth: blocks Escherichia coli growth. OD600, 23 h; stronger effect = lower value. OD600 absorbance (test concentration not listed). hit rate 0.21% among 330,000. AID 1053175;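 active = OD600 absorbance below the run mean of sample wells minus 3.6 SD, in any replicate, cut at about 0.56 in these data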;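 note: stock transfer was 300 nL into about 60 µL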
# The depositor's hits bear a star; ? = inconclusive; · = no result given.
SMILES,Vif TR-FRET,HNF4A DNA FP,A1 inh,LANA-H2A inh,Beta2AR agonist,UCH37 DUB inh,Ecoli growth
O=C(COC(=O)CCc1nc2ccccc2s1)NC(=O)NCc1ccco1,·,-3.6,-0.8,-2.0,1.1,1.6,0.661
CCOc1ccccc1NC(=O)N1CCCC1C(=O)Nc1ccc(-n2cnnn2)c(C)c1 (stereo not given),24.7%,0.9,-0.5,-0.2,2.1,-2.5,0.719
CC(C)c1cc(C(F)(F)F)n2nc(C(=O)Nc3ccc(-n4cnnn4)cc3)cc2n1,-26.7%,-0.6,-0.3,-0.7,-9.7,-28.2,0.697
O=C(COc1cccc2cccnc12)N/N=C1\SCC(=O)N1Cc1ccco1,6.0%,-1.7,0.0,-2.5,0.9,·,·
COC(=O)/C=C1/S/C(=N/NC(=O)c2ccccc2)NC1=O,11.8%,3.2,0.4,-3.7,-6.4,13.3,0.742
Cc1ccc(S(=O)(=O)C2(C(=O)Nc3cccnc3)CC2)cc1,9.2%,-1.6,-0.2,-2.3,-1.0,2.7,0.707
S=C(NCc1ccccc1)N1CCn2cccc2C1c1cccnc1 (stereo not given),·,0.9,·,·,-2.5,3.0,0.707
CCOC(=O)c1cnc(SCC(=O)OC)nc1N,3.3%,0.9,0.1,4.4,5.1,-2.6,0.647
NS(=O)(=O)c1ccc(N/C=C\C(=O)c2ccc(F)cc2)cc1,-3.8%,1.3,-4.7,2.7,9.2,-11.9,0.607
CCc1cccc2c(C(=O)C(NCCCOC)c3ccccc3)c[nH]c12 (stereo not given),8.5%,-3.9,0.2,-1.0,8.1,0.1,0.69
Cc1ccc(Nc2ncnc(-n3cccc3)n2)cc1Cl,-5.5%,-1.5,-0.5,1.5,4.4,6.6,0.659
CCOc1ccccc1CN1CCC(CO)(CCOc2ccccc2)CC1,·,0.5,1.2,-4.6,0.4,2.2,0.72
Cc1cc(Cl)ccc1C(=O)C1CCCN(C(=O)c2ccc3ncccc3c2)C1 (stereo not given),27.9%,-1.1,0.0,-1.4,-0.8,0.2,0.685
COc1ccc(OC)c(C2=NO[C@@](CC(=O)O)(C(=O)Nc3ccc4c(c3)OCCO4)C2)c1,-12.6%,-1.8,1.0,-0.3,-4.3,-9.0,0.574
CN=C1S/C(=C\c2cn(CC(=O)OC)c3ccccc23)C(=O)N1C,-6.4%,3.5,0.5,2.0,8.6,8.4,0.719
Cc1ccc(Cl)c(OCCCCN(C)Cc2ccccc2)c1,-5.6%,2.0,0.6,2.7,-2.1,3.8,0.644
COc1ccc(C)cc1S(=O)(=O)N1CCC(C(=O)N2CCOCC2)CC1,4.4%,0.1,0.7,-3.3,-14.8,4.0,0.726
COCC(C)NC(=O)C1CCN(S(=O)(=O)c2ccc3ccccc3c2)CC1 (stereo not given),2.2%,3.2,-0.2,6.1,-10.6,0.3,0.704
CCCn1c(N)c(NCCN2CCOCC2)c(=O)[nH]c1=O,·,-3.5,0.0,3.1,14.6,-4.9,0.661
O=C(NCc1ccccn1)c1c(O)c2c([nH]c1=O)CCCC2,-5.0%,11.8,-0.6,-6.8,-3.6,5.1,0.647
CCN(CC)S(=O)(=O)c1ccc(C(=O)OCC(=O)NCCN2C(=O)CSC2=O)cc1,3.6%,1.5,0.4,-7.0,-3.1,2.2,0.657
O=C(CN1C(=O)c2ccccc2S1(=O)=O)NCCSCc1cccc(Cl)c1,-3.7%,-0.1,0.3,1.3,4.1,3.0,0.623
Cc1cc(Nc2cccc(F)c2)n2ncnc2n1,?,-0.3,-0.1,-2.4,1.0,3.4,0.687
CN(C)S(=O)(=O)c1ccc(N=Cc2c(C(F)(F)F)[nH][nH]c2=O)cc1,5.8%,0.4,0.6,-3.6,-1.9,2.0,0.712
COc1cccc(/C=N/NC(=O)CN(C2=NS(=O)(=O)c3ccccc32)c2ccccc2)c1,·,-0.3,-0.1,-0.4,1.2,·,·

# New compounds follow
SMILES,Vif TR-FRET,HNF4A DNA FP,A1 inh,LANA-H2A inh,Beta2AR agonist,UCH37 DUB inh,Ecoli growth
Cc1ncsc1C(=O)N1N=C2/C(=C/c3ccccc3)CCCC2C1c1ccccc1 (stereo not given),7.9%,5.0,0.0,-4.7,6.9,-33.7,0.703
Cc1ccc(SCC(=O)OCC(=O)NCCc2ccccc2)cc1C,-10.7%,-3.4,-1.2,0.2,-9.5,0.1,0.715
O=C1NC2C(NC(=O)N2C2CCCCC2)N1C1CCCCC1 (stereo not given),-1.4%,-0.7,1.6,-0.1,1.1,-0.3,0.731
CCC1(C)NC(=O)N(CC(=O)Nc2sc3c(c2C(N)=O)CCC3)C1=O (stereo not given),29.9%,4.6,-0.6,8.0,1.0,2.7,0.674
COc1cccc(C(c2c(C)[nH]n(-c3ccccc3)c2=O)c2c(C)[nH]n(-c3ccccc3)c2=O)c1O,·,-4.1,0.0,-5.7,7.9,3.4,0.686
CCOC(=O)Oc1ccc(C(=O)OCCCN(C)C)cc1OC,3.6%,-1.0,0.1,-6.2,-3.4,0.5,0.643
COc1ccc(NC(=O)Cn2nc(C(F)(F)F)c3c2CCCC3)cc1OC,25.7%,0.3,0.5,4.2,-4.2,-1.7,0.717
CC(=O)N1CCCN(Cc2cn(-c3ccc(C)cc3)nc2-c2ccc(F)cc2)CC1,·,-0.1,-0.7,0.0,-6.9,5.1,0.666
COc1ccc(/C=N/NC(=O)C(=O)NCc2cccnc2)cc1OC,19.3%,3.1,0.6,-7.1,7.3,·,·
CCN1CCN(Cc2nc3cc(NC(=O)COc4ccc([N+](=O)[O-])cc4)ccc3n2C)CC1,·,0.2,·,·,-4.9,4.6,0.654
C=C[C@@]1(C)CC(=O)[C@]2(O)[C@@]3(C)[C@@H](O)CCC(C)(C)[C@@H]3[C@H](O)[C@H](OC(C)=O)[C@@]2(C)O1,·,1.8,2.1,0.0,0.5,2.1,·
CC(=O)NC(C)C12CC3CC(CC(C(=O)O)(C3)C1)C2 (stereo not given),?,1.9,-0.6,-0.8,7.6,2.1,0.67
COc1ccc2c(c1)sc(N)[n+]2Cc1cc(C)cc2cccnc12,·,3.0,0.6,0.6,1.2,3.0,0.603
O=C(CN1C(=O)NC2(CCCCCC2)C1=O)Nc1ccc(Cl)cc1Cl,-1.8%,-0.7,0.0,·,-4.3,1.5,0.679
CNC(=S)Nn1cnc2ccccc21,-4.5%,1.5,0.2,12.5,2.4,3.8,0.71
O=C(CN1C(=O)NC2(CCCCC2)C1=O)NNC(=O)C1CC1,-2.2%,-2.0,0.5,-1.7,6.7,3.1,0.711
CCc1ccccc1NC(=O)CC1S/C(=N\c2nccs2)N(CC)C1=O (stereo not given),-4.8%,3.5,0.1,-4.2,-0.4,·,·
Cc1ccc(-c2[nH]ncc2/C=C(\C#N)C(=O)NC2CCCCC2)cc1,17.7%,0.2,?,-2.1,0.1,0.2,0.736
COc1ccc(-c2csc(/C(C#N)=C/Nc3cc4oc5ccccc5c4cc3OC)n2)cc1,-10.3%,22.1,0.1,6.1,6.7,-7.5,0.705
Cc1cc2cc(CNC(=S)Nc3ccc(OC(F)F)cc3)ccc2n1C,15.4%,-1.2,0.2,-2.6,-0.8,6.8,0.689
c1ccc(-c2noc(COc3ccc4c(c3)OCO4)n2)cc1,-13.3%,1.1,-1.7,-1.9,3.9,-2.2,0.769
C=CCn1c(SCC(=O)N(C)CC(=O)Nc2ccc(C)cc2)nnc1-c1ccncc1,2.8%,3.1,0.6,-4.9,-5.3,2.0,0.683
O=C(Nc1ccnn1C1CCN(Cc2ccc(CO)o2)CC1)c1ccc2c(c1)OCO2,·,1.5,0.1,-1.4,-2.4,-0.1,0.707
CCc1cccc(CC)c1NC(=O)CCCSc1nc2ccccc2s1,·,-0.4,-0.4,-9.9,-3.3,1.6,0.755
CS(=O)(=O)N1CCN(c2ccc(C(=O)N3CCOCC3)cc2[N+](=O)[O-])CC1,-12.3%,2.1,-0.3,-3.5,-3.1,3.3,0.668

# Further entries
SMILES,Vif TR-FRET,HNF4A DNA FP,A1 inh,LANA-H2A inh,Beta2AR agonist,UCH37 DUB inh,Ecoli growth
COc1cc(OC)cc(-c2c(C#Cc3ccsc3)c3cc(-c4ccc(SC)cc4)ccc3n2C)c1,·,4.9,-1.3,2.5,14.4,-38.9,0.735
CC(Sc1nnc(-c2ccccc2F)n1C1CC1)C(=O)NC(N)=O (stereo not given),·,0.6,-0.4,-0.4,6.9,2.1,0.682
COc1ccc(CC(=O)NNC(=O)COc2ccc3ccccc3c2)cc1,·,-0.9,0.2,-2.0,-0.8,-3.0,0.669
CCCCCC(=O)N1CCCC1,-5.4%,5.9,3.1,0.5,-2.8,-0.1,0.691
CCCc1nc(SCC(=O)N2CCN(c3ccccc3)CC2)c2c(=O)n(C)c(=O)n(C)c2n1,-8.0%,0.8,0.6,-2.3,11.4,-1.1,0.756
COc1cccc(N(CC(=O)NCc2cccnc2)S(C)(=O)=O)c1,-2.8%,-1.6,-0.3,-0.8,-7.5,1.4,0.725
C=CCN(CC=C)S(=O)(=O)c1ccc2nsnc2c1,0.5%,2.1,1.5,2.5,2.0,3.5,0.671
CCN(C)Cc1c(C(=O)N2CCc3ccccc3C2)nc2ccc(Cl)cn12,0.4%,2.0,0.2,3.7,-9.5,-0.7,0.684
Cc1cc(N2C(=O)C(O)=C(C(=O)c3cc4ccccc4o3)C2c2cccs2)no1 (stereo not given),·,7.0,1.0,-2.8,15.1,·,·
CC(C)C(=O)Nc1ccc(C(=O)NC2CCSC2=O)cc1 (stereo not given),30.7%,-0.1,0.1,1.3,-1.1,0.5,0.685
CC1=C(C#N)C2(O)C(=O)c3ccccc3C2(O)N1 (stereo not given),-9.1%,-3.1,-0.7,-1.9,0.1,-2.0,0.716
Cc1cccc(-n2c(SCC(=O)NC3CCCC3)nnc2-c2ccoc2C)c1,-0.8%,1.8,-0.7,-4.1,-0.4,-0.4,0.665
COc1ccc(-c2cc(=O)c3ccccc3s2)cc1,-5.7%,0.9,-7.8,-3.2,-5.8,-5.8,0.655
COc1ccc(C=O)cc1CSc1ncccc1C(=O)O,-1.2%,-5.3,0.7,-1.4,-2.7,1.0,0.635
CCN(CC(=O)Nc1ccc(NC(C)=O)cc1)C(=O)CCN1C(=O)C2CC=CCC2C1=O (stereo not given),-1.9%,1.4,·,·,9.4,-0.8,0.699
Cc1ccccc1N=C1NN=C(c2ccccc2F)CS1,·,7.2,-0.3,-5.5,8.1,1.7,0.66
CCOC(=O)c1c(NC(=O)CSc2nncs2)sc(C)c1-c1ccccc1,·,1.5,0.4,-0.7,8.4,2.3,0.662
CCOC(=O)/C(C#N)=C/c1ccc(N2CCCCC2)cc1,6.6%,42.2*,-3.2,-4.9,-0.8,4.6,0.732
COc1ccc(-c2cc(=O)[nH]c(=O)[nH]2)cc1,13.6%,1.1,0.9,-0.4,-2.2,3.0,0.699
CC1CCN(C(=O)C(Cc2ccccc2)n2cccc2)CC1 (stereo not given),1.9%,1.8,0.6,-4.1,-5.8,-0.4,0.757
COc1cccc(CC(=O)Nc2nc3ccccc3[nH]2)c1,-15.4%,2.1,-0.4,0.4,-2.0,0.4,0.685
Cc1cc(=O)c2ccc(Cl)cc2[nH]1,?,-0.6,0.6,-0.5,-2.9,1.7,0.656
CCOC(=O)N1CCN(C(=O)c2c[nH]c3ccc(S(=O)(=O)N(C)c4ccccc4C)cc3c2=O)CC1,·,-0.6,-0.3,-0.3,-7.6,-15.3,0.698
Cc1ccc(NC(=O)c2cc3cccc([N+](=O)[O-])c3[nH]2)cc1,·,-0.6,-5.0,2.2,11.1,4.2,0.649
CCc1ccccc1OCC(=O)NCC1COc2ccccc2O1 (stereo not given),-5.0%,-4.6,-1.0,3.9,-1.3,0.9,0.69
